Ecoli rRNA inh – selective bacterial rRNA inhibition in E. coli; E. coli WT GFP vs humanized-ribosome RFP mutants, fluorescence, 24 h; stronger effect = lower value; DMSO median 0, no signal -100; actives 1.6% (n = 350,000); AID 720706; GFP signal change (wild-type ribosome), % (no concentration beside the values);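 active = significant combined selectivity score with lowered wild-type GFP, culture density cut under 30%, mutant RFP and density less affected; inactive = any of these conditions unmet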; note: one replicate is shown; some compounds called inactive have numbers as strong as hits
Ecoli growth – E. coli growth inhibition. Escherichia coli growth, OD600, 23 h; stronger effect = lower value. actives 0.21% (n = 330,000). OD600 absorbance (concentration not given with the values). AID 1053175;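 active = OD600 absorbance below the run mean of sample wells minus 3.6 SD, in any replicate, cut at about 0.56 in these data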;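 note: stock transfer was 300 nL into about 60 µL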
MLL AF4-AF9 inh – inhibitors of human MLL-AF4/AF9 interaction. inhibition, % at 10 µM. P42568. actives 0.47% (n = 350,000). AlphaScreen, biotin-AF4 peptide binding to FLAG-AF9;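 active = every replicate reaching a set inhibition limit, whatever the replicate mean, cut at about 25% in these data; inconclusive = mean inhibition reaches that limit but some replicates miss it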;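 note: 0% = plate neutral control median and 100% = total signal loss; the record names both 10 and 1 µM as test concentration; the first replicate is given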
HNF4A DNA FP – change in binding of human HNF4 alpha to DNA; activity change, % at 10 µM; HNF4a-FITC DNA binding, fluorescence polarization, 1 h; actives 0.3% (n = 360,000); in the data active = activity change above about 30%, passing the limit was not always enough;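 note: controls were the assay level and a saturating level of protein; the project sought stronger binding though the title names inhibitors; some compounds called inactive have numbers as strong as hits; positive values seem to mean higher polarization but the record does not say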
Target sequence (P41235 whole entry, looked up): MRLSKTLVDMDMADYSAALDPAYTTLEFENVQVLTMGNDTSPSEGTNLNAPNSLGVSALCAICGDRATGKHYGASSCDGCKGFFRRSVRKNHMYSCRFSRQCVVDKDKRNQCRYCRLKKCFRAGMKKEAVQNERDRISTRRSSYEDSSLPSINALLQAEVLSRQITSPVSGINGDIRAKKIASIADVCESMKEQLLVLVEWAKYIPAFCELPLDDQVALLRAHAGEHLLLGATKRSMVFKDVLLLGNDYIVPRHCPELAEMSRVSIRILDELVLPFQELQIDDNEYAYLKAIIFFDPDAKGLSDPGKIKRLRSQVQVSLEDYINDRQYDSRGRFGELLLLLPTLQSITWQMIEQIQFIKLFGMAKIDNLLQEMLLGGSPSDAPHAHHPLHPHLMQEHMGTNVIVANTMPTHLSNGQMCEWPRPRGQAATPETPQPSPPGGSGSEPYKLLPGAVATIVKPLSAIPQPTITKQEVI
FGF22 binding – FGF22 (human) thermal shift binding; Q9HCT0; recombinant FGF22 thermal shift, SYPRO orange fluorescence; percent of sucrose octasulfate shift, DMSO zero; calls only at 9.99 µM; actives 1.5% (n = 340,000); AID 651658;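 active = melting point raised past a set limit in the mean and every replicate; inconclusive = no clear call; three in four hits are not shown here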
Target sequence (Q9HCT0 whole entry, looked up): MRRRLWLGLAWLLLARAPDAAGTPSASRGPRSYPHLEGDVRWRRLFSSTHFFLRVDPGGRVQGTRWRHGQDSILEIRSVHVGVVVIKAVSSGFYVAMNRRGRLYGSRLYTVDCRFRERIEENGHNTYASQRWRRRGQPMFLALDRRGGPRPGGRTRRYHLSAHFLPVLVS
Vif A3G – inhibitors of Vif binding to APOBEC3G peptide, primary screen, biochemical, TR-FRET, GST-Vif 1-94, biotin-A3G peptide, dose response retest (AID 1117319); TR-FRET GST-Vif / biotin-A3G peptide binding; higher % means a stronger effect; test concentration not given here; strong numbers were not always called active; inhibition, %, or IC50 in µM where a hit was titrated; actives 0.57% (n = 260,000);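 active = above the screen mean plus three standard deviations and confirmed in dose response; inconclusive = results disagree or hit not tested in dose response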;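 note: Vif residues 1-94 fused to GST binding biotinylated APOBEC3G peptide 110-148; 0% = full assay without inhibitor and 100% = GST in place of GST-Vif; retest series ran down from 100 µM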
ALR inh – inhibitors of human sulfhydryl oxidase ALR. purified ALR, DTT oxidation, H2O2 HRP-luminol luminescence. inhibition, % (no concentration beside the values). actives 3.8% (n = 290,000). AID 485317;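 active = mean and each replicate at 75% or more; inconclusive = only one of the two met; inactive = neither met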;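 note: stock transfer was 7.5 nL into about 7.5 µL; 0% = neutral wells and 100% = wells with inactivated enzyme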
Target sequence (P55789 whole entry, looked up): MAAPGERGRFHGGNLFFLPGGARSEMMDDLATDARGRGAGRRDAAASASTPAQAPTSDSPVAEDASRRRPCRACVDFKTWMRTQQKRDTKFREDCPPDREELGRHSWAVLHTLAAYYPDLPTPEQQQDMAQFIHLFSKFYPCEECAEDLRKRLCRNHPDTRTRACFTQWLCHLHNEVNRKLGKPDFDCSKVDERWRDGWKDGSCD
Ecoli rRNA inh OD600 – further read-out of Ecoli rRNA inh, marked with its call; OD600 change, %; measured here: OD600 growth;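 optical density of the mix in the first replicate; 0 = DMSO median and -100 = no signal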
Ecoli rRNA inh RFP – further read-out of Ecoli rRNA inh, marked with its call; RFP signal change, %; measured here: RFP humanized mutant strains;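 first replicate; 0 = DMSO median and -100 = no signal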
The depositor's hits bear a star; i = inactive; ? = inconclusive; / = no result given; & = joins results of further samples. These rows are one share of the data, so the mix of outcomes need not match the whole.

SMILES	Ecoli rRNA inh	Ecoli rRNA inh OD600	Ecoli rRNA inh RFP	Ecoli growth	MLL AF4-AF9 inh	HNF4A DNA FP	FGF22 binding	Vif A3G	ALR inh
COc1ccc(N2CCN(C(=O)C3CC(=O)N(c4ccc(C)cc4)C3)CC2)cc1 (centres undefined)	7	6	0.6	0.67	0.1	3.1	i	-7%	0
CC(=O)N1CN(Cc2ccccn2)Cc2c1sc1c2CCCC1	/	/	/	0.66	/	-3.2	/	8%	-58
C=C(C)c1cccc(C(C)(C)NC(=O)NC2CCN(Cc3ccccc3)CC2)c1	5	-8	-0.9	0.61	8.5	0.4	i	4%	/
N#Cc1ccccc1S(=O)(=O)N1CCN(C(=O)c2cc3c(s2)CCC3)CC1	-1	-2	0.6	0.67	-4.9	-7.9	i	15%	/
COc1ccc(CCNC(=O)CCCCCNc2nc(=S)[nH]c3ccccc23)cc1OC	/	/	/	0.68	/	0.7	/	28%	-7
CCN(C[C@H]1N[C@@](C)(C(=O)OC)[C@H]2C(=O)N(C)C(=O)[C@@H]12)S(=O)(=O)c1ccc(-c2ccccc2)cc1	-11	-15	4.2	0.7	-1.1	4.0	i	2%	/
Cc1ccccc1S(=O)(=O)N1CCCc2nc(-c3ccccc3)ccc21	-2	-7	-1.4	/	-0.7	/	/	/	/
c1ccc(C2CCC3(CC2)Oc2ccccc2C2CC(c4cccnc4)=NN23)cc1 (centres undefined)	/	/	/	0.69	/	/	/	0%	30
COc1ccccc1N1CCN(S(=O)(=O)c2c(C)ccc3nsnc23)CC1	/	/	/	0.64	/	-1.8	/	-2%	58
Cc1ccc(Sc2cnc(N)nc2C)cc1	14	6	0.0	0.72	-3.9	1.4	i	-12%	-6
Cc1c(C(=O)NCc2ccc3c(c2)OCO3)cccc1[N+](=O)[O-]	18	12	-1.0	0.71	3.3	-5.6	i	27%	/
C[C@@H](NC(=O)[C@H]1N[C@H]2c3ccc(C4=CCCC4)c(=O)n3C[C@H]2[C@@H]1CO)c1ccccc1	-3	-12	-0.5	/	1.1	/	i	/	/
CCOC(=O)/C(=C/c1c[nH]c2ccccc12)NC(C)=O	/	/	/	0.66	/	3.4	/	0%	97*
COc1cc(C=C2C(=O)OC(C)(C)OC2=O)ccc1OCC(=O)Nc1ccccc1	11	9	-0.5	0.73	-5.1	-1.4	i	4%	?
CN(C)S(=O)(=O)Oc1cccc(C(=O)Nc2ccc(Cl)cc2)c1	/	/	/	0.69	/	-2.3	/	33%	8
Cc1cc(-n2cccn2)ccc1CN1CCN(C2CCCC2)C(CCO)C1 (centres undefined)	2	3	-1.3	0.73	3.9	-5.3	i	-3%	-12
Cc1noc2ncnc(Oc3ccc(F)cc3)c12	/	/	/	0.75	/	1.1	/	-4%	/
NCC(=O)NCC(=O)NC1(C(=O)O)CCCC1	/	/	/	0.68	-3.0	-0.5	i	0%	/
Cc1noc(C)c1NC(=O)Nc1cccc2c1O[C@H](CN(C)C(=O)NC1CCCCC1)[C@@H](C)CN([C@H](C)CO)C2=O	0&11	-1&9	-3.2&-1.0	/	-3.6	-3.0	i	/	-4
Cc1ccc(Cl)cc1NC(=O)C1C2CCC(O2)C1C(=O)O (centres undefined)	3	4	-2.8	0.7	2.2	3.9	i	/	3
O=C(COc1ccc(C(=O)NCc2cccnc2)cc1)Nc1cccc(C(F)(F)F)c1	-23*	-18*	-4.4*	0.67	-0.3	-0.2	i	-9%	-42
C[C@H](NC(=O)C[C@H]1C=C[C@H](NS(=O)(=O)c2cccc(F)c2)[C@@H](CO)O1)c1ccccc1	-1	4	0.4	/	0.3	/	i	/	/
CCOC(=O)NC(=O)COC(=O)c1ccc(Sc2ncn[nH]2)c([N+](=O)[O-])c1	11	2	-2.2	0.71	-1.7	-0.6	/	/	-1
Cc1ccc(N=Nc2c(O)n(CN3CCOCC3)c3ccccc23)cc1	/	/	/	0.71	/	6.8	/	7%	/
Cn1cnc(S(=O)(=O)N2C[C@@H](O)COC[C@H]3O[C@H](CC(=O)NC4CCC4)CC[C@@H]32)c1	7	14	3.1	/	-17	/	i	/	/
SMILES	Ecoli rRNA inh	Ecoli rRNA inh OD600	Ecoli rRNA inh RFP	Ecoli growth	MLL AF4-AF9 inh	HNF4A DNA FP	FGF22 binding	Vif A3G	ALR inh
CC(c1nccs1)N(C)c1nc2nonc2nc1NC1CC1 (centres undefined)	6	10	-2.6	0.66	-6.3	-10	i	/	/
CC(CN1CCCCC1)c1ccccc1 (centres undefined)	5	12	-1.1	0.61	-1.9	-5.4	i	0%	8
C/C=C/c1ccc2c(c1)O[C@H](CN(C)C(=O)Nc1ccc(OC)cc1)[C@H](C)CN([C@H](C)CO)S2(=O)=O	-1	-4	0.6	/	3.8	/	i	/	/
Cc1ccccc1NC(=O)c1sc2nc3c(c(-c4ccco4)c2c1N)CCCC3	/	/	/	0.74	/	1.9	/	9%	-3
COCCN(C[C@@H]1[C@H](c2ccccc2)[C@@H](CO)N1C(C)=O)C(=O)c1ccncc1	4	13	-2.9	/	-2.7	/	i	/	/
O=C(CN1CCN(S(=O)(=O)c2ccccc2Cl)CC1)NCC1(N2CCOCC2)CCCCC1	-4	-6	4.2	0.67	1.7	-4.0	i	-2%	/
Cc1ccc(-c2nnn(CC(=O)N(CC(=O)NC3CCCC3)c3ccc(F)cc3)n2)o1	0	-5	0.0	0.7	-22	-1.7	i	/	-3
CCCc1nnc(NC(=O)C23CC4CC(CC(C4)C2)C3)s1	10	5	4.2	0.72	-1.6	3.1	i	/	-4
c1ccc(-n2c(-c3ccncc3)nnc2-c2ccco2)cc1	/	/	/	0.7	/	-3.4	/	2%	-15
Cn1c2ccccc2c2cc(C(=O)N3CCOCC3)sc21	/	/	/	0.74	/	1.6	/	17%	?
O=C(CN(C(=O)c1ccccc1Cl)N1C(=O)C2C3C=CC(C3)C2C1=O)c1cccs1 (centres undefined)	10	5	-4.1	0.71	3.0	0.4	i	-39%	4
COc1ccc(N2CCN(C(=O)c3nn(C)c4c3CS(=O)(=O)c3ccccc3-4)CC2)cc1	-6	-2	6.2	0.69	5.2	-1.3	i	-1%	33
COc1ccc(-c2coc3cc(OC(=O)N4CCOCC4)ccc3c2=O)cc1	11	13	0.4	0.65	7.9	3.8	i	-9%	-5
Cc1ccc(OCCCc2c(C)n[nH]c2C)cc1	-41	-34	-6.9	0.63	3.0	-0.1	i	0%	/
CCOc1cccc(NC(=O)C2CC(=O)N(C)C(=Nc3cccc(F)c3)S2)c1 (centres undefined)	-37	-39	-5.7	0.67	-29	-1.6	i	?	/
CN(C)S(=O)(=O)c1ccc(N2CCCC2)c(C(=O)Nc2ccc(C(N)=O)cc2)c1	1	4	0.8	0.71	2.5	3.2	i	3%	-1
O=C1NC(c2ccccc2)C(C(=O)c2cccs2)C(O)(C(F)(F)F)N1 (centres undefined)	/	/	/	/	/	-0.2	/	15%	-7
Cc1cc2ncn(-c3nnnn3-c3ccccc3)c2cc1C	/	/	/	0.7	/	2.5	/	-4%	-4
O=C(O)Cn1cc(C(=O)c2cccs2)c2ccccc21	/	/	/	0.73	/	-1.2	/	13%	-4
COc1ccc2nc3ccccc3nc2c1	/	/	/	0.64	2.2	-8.6	i	0%	-27
C[C@H]1NC(=O)[C@@]2(C)[C@@H](c3ccccc3)[C@H]3COc4ccccc4[C@H]3N2C1=O	-5	9	-2.0	/	-3.0	3.3	i	/	-10
Cc1ccc(C)c(N2CCN(C(=O)CNS(=O)(=O)c3cccs3)CC2)c1	-18	-19	-2.5	0.65	-7.2	0.5	i	1%	/
C[C@@H]1CN([C@@H](C)CO)C(=O)c2cccc(NC(=O)C3CC3)c2O[C@H]1CN(C)C(=O)Nc1cccc2ccccc12	3	4	0.1	/	0.0	/	i	/	/
C[C@@H]1CN([C@@H](C)CO)C(=O)c2cc(NC(=O)Cn3cnnn3)ccc2O[C@H]1CN(C)S(=O)(=O)c1cn(C)cn1	5	0	0.5	/	-4.1	/	i	/	/
COc1ccc(/C(N)=N/OC(=O)CCc2ccccc2)cc1OC	-4	-5	-2.0	0.67	-0.7	-0.4	i	-6%	-8

Record cards, from the list above. Order of values: Ecoli rRNA inh, Ecoli rRNA inh OD600, Ecoli rRNA inh RFP, Ecoli growth, MLL AF4-AF9 inh, HNF4A DNA FP, FGF22 binding, Vif A3G, ALR inh
Shown for O=C(CN1CCN(S(=O)(=O)c2ccccc2Cl)CC1)NCC1(N2CCOCC2)CCCCC1 : -4, -6, 4.2, 0.67, 1.7, -4.0, i, -2%, /
Shown for COc1ccc(-c2coc3cc(OC(=O)N4CCOCC4)ccc3c2=O)cc1 : 11, 13, 0.4, 0.65, 7.9, 3.8, i, -9%, -5
Shown for O=C(O)Cn1cc(C(=O)c2cccs2)c2ccccc21 : /, /, /, 0.73, /, -1.2, /, 13%, -4

Remaining list, next part
SMILES	Ecoli rRNA inh	Ecoli rRNA inh OD600	Ecoli rRNA inh RFP	Ecoli growth	MLL AF4-AF9 inh	HNF4A DNA FP	FGF22 binding	Vif A3G	ALR inh
C=CCCC(=O)N1C[C@H]2CCN(C)[C@H]2C[C@H]1c1ccccc1	7	4	-1.7	/	3.4	-1.5	i	/	/
O=C(NCC1CCCO1)c1ccccc1NS(=O)(=O)c1cc([N+](=O)[O-])ccc1Cl (centres undefined)	1	-2	-1.5	/	-0.6	1.2	i	-10%	/
O=C(NCCC(F)(F)F)C1Cc2c(-c3ccc(Cl)cc3)ccnc2O1 (centres undefined)	-1	-2	1.1	/	0.0	-2.6	i	/	/
COc1ccc(OCCNC(=O)c2ccc3nc(C)c(N(C)C(=O)CCc4ccccc4)n3c2)cc1	-2	-1	-0.7	/	5.6	0.5	i	/	/
C=CCN1C(=O)c2oc3ccccc3c(=O)c2C1c1ccc(O)c(OC)c1 (centres undefined)	9	21	0.1	0.7	4.8	2.7	i	1%	/
Cc1ccc(S(=O)(=O)Nc2ccc3c(c2)C(=O)N([C@@H](C)CO)C[C@H](C)[C@H](CN(C)S(=O)(=O)c2ccc(C)cc2)OCCCC[C@@H](C)O3)cc1	2	1	-0.9	/	-11	/	i	/	/
CC(C(=O)NCc1ccc2c(c1)OCO2)N1c2cccc3cccc(c23)S1(=O)=O (centres undefined)	/	/	/	0.67	/	-3.3	/	27%	-39
Cc1ccc(S(=O)(=O)CCC(=O)Nc2nc(-c3ccccn3)cs2)cc1	-30	-44	-11	0.68	-2.9	0.9	i	-21%	70
Cc1ccccc1S(=O)(=O)Cc1ccc(C(=O)NC(C)c2ccc3c(c2)OCCO3)o1 (centres undefined)	2	-6	-1.3	0.77	-4.4	-0.2	i	2%	-18
Cc1ccccc1-c1nc2ccccc2c(=O)n1/N=C/c1ccc([N+](=O)[O-])cc1	2	6	11	/	-3.8	2.7	i	/	-7
Cc1cc(NC(=O)CSCC(=O)N(C)Cc2cccc(Cl)c2)no1	5	2	1.3	0.67	20	1.9	i	1%	4
CCc1nc(N[C@@H](CC(C)C)C(=O)O)c2oc3ccccc3c2n1	-14	-7	0.2	0.69	/	-4.0	/	6%	-1
O=C(COc1ccc(/C=C\[N+](=O)[O-])cc1)N1CCOCC1	18	5	-4.5	0.67	-6.7	-21	i	-1%	-19
CCC/C(O)=C1\C(=O)CC(C)(C)CC1=Nc1ccccc1OC	/	/	/	0.78	/	2.4	/	24%	-4
CCN(CC)CCN(Cc1cc2cc(C)ccc2[nH]c1=O)C(=O)Nc1ccccc1OC	/	/	/	0.75	/	-1.4	/	-3%	-4
Cc1nn(C(C)C(=O)NCCC2=CCCCC2)c(=O)c2nn(-c3ccccc3)c(C)c12 (centres undefined)	-14	-4	-1.2	0.71	-5.6	-0.2	i	/	-3
CSc1nc(N)nc2c1ncn2CC(=O)N1CCN(Cc2c(C)cc(C)cc2C)CC1	2	17	-2.4	0.7	-2.8	-0.5	i	-3%	/

Assay outcomes (PubChem)
